Mtb growth = M. tuberculosis H37Rv growth inhibitors, H37Rv strain (AID 1626); inhibition, % at 10 µM; hits with a dose series show IC50 in µM; 0.95% of 220,000 active; M. tuberculosis H37Rv growth inhibition; higher % means a stronger effect;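 active means confirmed in a dose series; inconclusive means inhibition above 80% but not taken into the dose series; inactive means below 80% or under 30% at every dose of the series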;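 further: bacteria incubated seven days before Alamar blue readout; 0% = bacteria only wells and 100% = bacteria with antibiotic wells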
YopH PTP inh = blocks Yersinia enterocolitica YopH tyrosine phosphatase; 0.16% of 140,000 active; inhibition, %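 (about 10 µM by stock and volumes)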; fluorescence Ex485/Em525;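 active means inhibition of 50% or more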;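 further: controls were vehicle for no effect and minimum signal wells for full effect; inactives centre near -20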
RecA splice inh = Mtb RecA intein splicing inhibition | P9WHJ3 | cell-free RecA intein splicing, fluorescence | inhibition, %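 (about 9 µM by stock and volumes)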 | 0.75% of 290,000 active | AID 2221; in the data active means inhibition above about 30%; inconclusive means no clear call, values can overlap the other calls;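 further: 0% = vehicle wells and 100% = reference inhibitor control wells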
Target sequence (P9WHJ3 whole entry, looked up, canonical isoform): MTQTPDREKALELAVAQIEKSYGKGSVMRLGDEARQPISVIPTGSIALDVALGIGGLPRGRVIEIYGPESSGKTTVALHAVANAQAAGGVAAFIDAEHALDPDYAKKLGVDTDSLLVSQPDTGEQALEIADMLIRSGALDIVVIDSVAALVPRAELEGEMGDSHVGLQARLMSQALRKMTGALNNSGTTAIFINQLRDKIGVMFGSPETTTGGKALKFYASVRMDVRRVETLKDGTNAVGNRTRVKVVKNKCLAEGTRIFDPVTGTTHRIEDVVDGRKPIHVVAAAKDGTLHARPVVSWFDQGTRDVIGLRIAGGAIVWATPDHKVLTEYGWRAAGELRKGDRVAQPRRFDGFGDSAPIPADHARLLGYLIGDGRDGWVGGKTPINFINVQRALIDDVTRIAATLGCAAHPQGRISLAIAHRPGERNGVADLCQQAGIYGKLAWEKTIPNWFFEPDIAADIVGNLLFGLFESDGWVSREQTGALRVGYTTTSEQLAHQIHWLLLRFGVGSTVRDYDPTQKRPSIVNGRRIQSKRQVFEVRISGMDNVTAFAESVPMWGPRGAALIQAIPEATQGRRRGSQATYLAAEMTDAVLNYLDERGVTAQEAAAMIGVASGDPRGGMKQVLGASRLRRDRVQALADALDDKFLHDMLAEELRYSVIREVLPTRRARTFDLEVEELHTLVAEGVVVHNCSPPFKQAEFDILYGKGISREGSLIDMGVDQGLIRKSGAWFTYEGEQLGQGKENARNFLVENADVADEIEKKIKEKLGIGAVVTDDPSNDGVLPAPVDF
Arbovirus anti = blocks arbovirus infection; arbovirus infection cell-based antiviral screen; inhibition, % at 10 µM; 0.37% of 200,000 active;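 active means inhibition from about 30%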;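 further: bluetongue infection of BSR cells; cell survival read as ATP light after 72 h; 0% = infected wells without compound and 100% = uninfected wells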
Mtb bLac sens = beta-lactam sensitization of Mtb H37Rv; inhibition, % at 25 µM; M. tuberculosis H37Rv growth with meropenem, percent inhibition; hits of this screen are not shown here; 0.27% of 330,000 active;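 active means about 74% or more and at least 40 points above the plate without the antibiotic, then above 30% in a dose series; inconclusive means first-round hits that could not be retested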;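 further: growth measured after seven days incubation then overnight dye step; 0% = bacteria only wells and 100% = bacteria with antibiotic; twin plates without the antibiotic show which effects depend on it; some results filed as inactive read as strong as hits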
Arbovirus anti repeat = recorded beside Arbovirus anti, whose call it bears; inhibition, %; measured here: 10K subset replicate screen; many hits read low in the repeat;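 first of two repeat runs on a subset; 0% = infected and 100% = uninfected wells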
* = called active by the depositor; u = inconclusive; x = not tested or not shown. This is a subset (hit frequency here may not be typical).

SMILES	Mtb growth	YopH PTP inh	RecA splice inh	Arbovirus anti	Mtb bLac sens	others
Cc1cccc(CSc2ncccc2C(=O)O)c1	3%	-3	3.3	6	5
Cc1ccc([N+](=O)[O-])cc1S(=O)(=O)N1CCCCC1C(=O)O (configuration not stated)	4%	x	-1.7	5	2
CC(=O)N[C@@H](C)c1nc2ccccc2n1CCNC(=O)[C@H]1CCCN1c1nc(CN2CCCCC2)cs1	x	x	-3.6	x	0
COc1ccc(C2CC(=O)N3CN(Cc4ccco4)CSC3=C2C#N)cc1 (configuration not stated)	-5%	-23	5.6	-7	1
C=CCSc1nc2c(c(=O)[nH]c(=O)n2C)n1C(C)C	0%	-7	-3.5	8	9
CCOC(=O)Cn1nc(-c2ccc(F)cc2)cc(Cc2ccccc2)c1=O	x	x	4.7	x	-6
COc1ccc2nc3c(cc2c1)c(NC(=O)CC(C)C)nn3CC(C)C	x	x	-43	x	10
O=S(=O)(c1cnc(Cl)c(Cl)c1)N1CCN(c2ncccn2)CC1	-13%	x	0.4	x	-9
CCSc1nc(-c2ccccc2)c(C#N)c(=O)[nH]1	-13%	-57	1.7	7	1
COc1ccc(S(=O)(=O)NCC(=O)O)cc1C(=O)NC1CCCCC1	0%	-28	-2.5	-2	0
COc1ccc2[nH]cc(CCNC(=O)Nc3ccccc3)c2c1	x	x	2.1	x	-3
CCOC(=O)c1ccc(NC(=O)CCNc2c(N3CCCC3)c(=O)c2=O)cc1	-1%	-21	1.6	11	-1
c1ccc(-n2nnnc2SCc2cn3cccnc3n2)cc1	-9%	-34	-1.7	4	-4
CCOc1ccc2nc(COC(=O)c3cccc([N+](=O)[O-])c3)c(C(C)=O)[n+]([O-])c2c1	2%	x	2.0	x	-8
Cn1c(=O)c2c(ncn2CC(=O)N2CCCc3ccccc32)n(C)c1=O	4%	-23	-0.6	-2	-2
CCOc1ccc(S(=O)(=O)N2CCC(C(=O)NCCc3ccc(OC)c(OC)c3)CC2)cc1	x	x	2.6	x	-3
O=C1c2nccnc2C(=O)N1c1ccc(C(F)(F)F)cc1	4%	x	-1.0	4	-5
COc1ccccc1-c1c(C)nn2c(N3CCC(C)CC3)cc(C)nc12	10%	x	0.8	x	3
CCOC(=O)N1CCN(c2c(NCc3ccccn3)c(=O)c2=O)CC1	2%	-15	-3.1	13	-4	Arbovirus anti repeat=3
COc1ccccc1C1N(c2cc(Cl)ccc2OC)C(=O)C2CCCN21 (configuration not stated)	-1%	-44	1.0	11	-3	Arbovirus anti repeat=3
CNc1[nH]c(=O)[nH]c(=O)c1N=Nc1cc(Cl)ccc1Cl	x	x	2.0	x	-11
N#C/C(=C\c1ccc(OCc2cccc(C(=O)O)c2)cc1)C(=O)NCc1ccco1	7%	x	0.2	x	-3
COc1ccc(Cl)c2sc(N(Cc3cccnc3)C(C)=O)nc12	x	x	0.2	x	5
O=C1NC(=O)C(=Cc2ccc(-c3ccccc3[N+](=O)[O-])o2)C(=O)N1	6%	x	0.6	x	-8
CCOC(=O)c1cnc2c(c(C)nn2C)c1Oc1cc(Cl)cc(Cl)c1	13%	x	-0.2	x	-2
Cc1cc(C)cc(NC(=O)N2CCCN(c3c(Cl)cncc3Cl)CC2)c1	-8%	x	-2.1	x	-4
COc1cc(OC)cc(-c2nc(-c3ccccc3OC)no2)c1	0%	-19	4.2	0	1
O=C(Nc1nnc(-c2ccc3c(c2)CCCC3)o1)c1c(F)cccc1F	u	x	20	5	94
O=c1[nH]c(SCc2ccccc2)nc2[nH]ncc12	-3%	x	-2.3	-15	5
O=C(Nc1ccccc1C(=O)N1CCCCC1)c1cccc(S(=O)(=O)N2CCOCC2)c1	-15%	6	-0.8	-2	-5
CN(CCOc1ccc(Cl)cc1)CC(=O)Nc1ccc(OC(F)F)cc1	x	x	2.3	x	-4
COn1c(=S)[nH]c2ccccc2c1=O	9%	-47	x	4	-3
CC(=O)c1cc(C(C)=O)c(C)[n+](C)c1C	0%	x	-4.6	x	1
Cc1cc(C(=O)N(NC(=O)C(C)C)c2ccccc2)cs1	-7%	x	0.1	x	0
COc1ccc(-n2ccnc2SCC(=O)NCc2ccc3c(c2)OCO3)cc1	2%	-3	1.7	-2	-10
Cc1nc2scc(-c3cccs3)c2c(=O)[nH]1	2%	-26	-1.5	1	31
CCN1C(=O)/C(=C/N(C)c2ccccc2)OC1=S	1%	-36	1.2	0	-5
CCOC(=O)N/C(N)=N/c1nc2ccccc2s1	4%	-10	3.0	9	u
O=C(CSC1c2ccccc2-c2ccccc21)N/N=C/c1ccc(C(=O)O)cc1	-3%	x	-3.6	-8	2
CC(NC(=O)Nc1ccc(Cl)c(Cl)c1)C(c1ccccc1)N1CCOCC1 (configuration not stated)	31%	-12	17	-19	8
O=C1CCC(CCC(=O)N2CCCC(C(=O)c3cccc(C(F)(F)F)c3)C2)=NN1 (configuration not stated)	0%	x	-1.3	-5	4
O=C(C[n+]1ccc(-c2nnc3n2CCC3)cc1)c1ccc(Cl)cc1	-3%	-20	6.0	-5	-1
COC(=O)c1cc(OC)nc(OC)c1	-5%	x	0.8	x	-5
Cc1nc2cc(NS(=O)(=O)c3c(C)c(C)cc(C)c3C)ccc2s1	10%	3	8.0	-20	-3
Cc1cc(C(=O)NCc2ccccc2)no1	-6%	-13	-1.2	2	u
O=C(O)c1cc(-c2ccccc2)nc2nc(N3CCCCC3)sc12	4%	x	-10.0	-2	3
O=C(O)c1cc([N+](=O)[O-])cc2c1C=Cc1ccccc1O2	x	x	1.0	x	-1
Cc1ccc(C(=O)N/C(=C/C=C/c2ccccc2)C(=O)NCc2ccco2)cc1	23%	-31	3.2	9	7
O=C(CSc1ccc2nnc(-c3ccccn3)n2n1)Nc1ccc(F)cc1	x	x	1.1	x	-4
Cc1cc(C)c2cc(CN(Cc3nnnn3C3CCCCC3)CC3CCCO3)c(=O)[nH]c2c1 (configuration not stated)	5%	-32	2.8	-1	4
(cont.)
SMILES	Mtb growth	YopH PTP inh	RecA splice inh	Arbovirus anti	Mtb bLac sens	others
COc1ccc(S(=O)(=O)Nc2ccccc2)cc1OC	1%	19	x	7	-11
O=S(=O)(NC1CCSc2ccccc21)c1ccc(Cl)nc1 (configuration not stated)	x	x	1.6	x	-1
Cn1cnnc1SCCNS(=O)(=O)c1ccccc1	3%	-5	-1.3	4	-12
COc1ccc(NS(=O)(=O)c2cn(C)c(=O)n(C)c2=O)c(OC)c1	-8%	x	-0.7	x	-8
CC(=O)Nc1ccc(OC(=O)N(C)c2ccccc2)cc1	2%	-42	-6.6	5	-5	Arbovirus anti repeat=-1
CN1CCN(/C=C2\SC(=S)NC2=O)CC1	0%	-39	2.1	17	-3
COCCn1c(SCC(=O)Nc2ccc(C(C)=O)cc2)nnc1-c1ccco1	x	x	-2.5	x	5
CC(=O)N1CCN(c2ccccc2NC(=O)COc2cc(C)cc(C)c2)CC1	x	x	-0.5	x	-3
CC(C)CC(NC(=O)C1CCCN1C(=O)OC(C)(C)C)C(=O)NCC(N)=O (configuration not stated)	0%	-21	-1.6	3	x
CCCC(c1nnnn1C(C)(C)C)N1CCN(C(=O)c2ccco2)CC1 (configuration not stated)	-5%	x	1.5	11	-9
Cc1cccc(NC(=O)Nc2cccc(C#N)c2)n1	4%	-28	2.9	4	-1	Arbovirus anti repeat=-5
Cc1ccccc1NC(=O)C(c1ccccc1)C1CCCC1 (configuration not stated)	9%	-16	-0.3	5	-1
COc1ccc(-c2csc(N(Cc3ccccc3)C(=O)COc3ccc(Cl)cc3)n2)cc1	-5%	-7	-1.1	4	13
N#C/C(=C\c1ccco1)C(=O)NCc1ccccc1	7%	x	-0.7	-1	-1
Cc1ccc(CNC(=O)c2ccc(CNc3c(N4CCCC4)c(=O)c3=O)cc2)cc1	9%	-41	2.3	3	-9
Cc1cccc(N2C(=O)/C(=C\c3ccc(C(=O)O)cc3)c3ccccc3C2=O)c1	1%	x	17	18	9
O=C1NC[C@@H](Cc2ccc(O)cc2)N(CC2CCCCC2)C1=O	-5%	x	-1.0	x	-3
CC(C)(C(=O)c1ccccc1)/[N+]([O-])=C/c1ccc(Br)cc1	0%	-30	-6.1	x	u
Cc1cccc(C(=O)N2CCc3cc(-c4csc(NC(=O)CN5CCCC5)n4)ccc32)c1	x	x	4.0	x	60
O=C(CCCN1C(=O)/C(=C/c2cccs2)SC1=S)NNC(=O)c1ccc(F)cc1	x	-29	-5.5	-5	8
Cn1nc(C(F)(F)F)c2cc(C(=O)Nc3ccc(Cl)cc3)sc21	54%	-14	2.0	0	98
Cc1ccc2ncnc(Nc3cccc([N+](=O)[O-])c3)c2c1	x	x	1.2	x	-3
COCCN1C(=O)N[C@H](c2cccc(C(F)(F)F)c2)C(C(=O)OC)=C1C	x	-33	-0.9	15	-3
CCOc1ccc(/C=N/NC(=O)CN2CCCCCCC2)cc1	7%	x	2.0	-1	-6
Cc1ccc(/C=C2/C(=O)N(c3ccccc3)C(=S)N2C)o1	3%	-19	0.1	-9	-5
CC(/C=C1\N=C(SCc2ccccc2)SC1=O)=C\c1ccccc1	-10%	-16	-1.3	-8	2
Cc1ccccc1CS(=O)(=O)CCC(=O)NCCCN1CCOCC1	x	-34	-5.0	12	-6
Cc1cccc(-c2noc(-c3ccc4c(c3)OCO4)n2)c1	-14%	x	0.5	0	1
CC1CC(Nc2ccccc2)c2ccccc2N1C(=O)c1ccccc1F (configuration not stated)	x	x	-3.0	x	-5

Entries listed so far containing an aryl methoxy group, in the order listed:
SMILES	Mtb growth	YopH PTP inh	RecA splice inh	Arbovirus anti	Mtb bLac sens	others
COc1ccc(C2CC(=O)N3CN(Cc4ccco4)CSC3=C2C#N)cc1 (configuration not stated)	-5%	-23	5.6	-7	1
COc1ccc2nc3c(cc2c1)c(NC(=O)CC(C)C)nn3CC(C)C	x	x	-43	x	10
COc1ccc(S(=O)(=O)NCC(=O)O)cc1C(=O)NC1CCCCC1	0%	-28	-2.5	-2	0
COc1ccc2[nH]cc(CCNC(=O)Nc3ccccc3)c2c1	x	x	2.1	x	-3
CCOc1ccc(S(=O)(=O)N2CCC(C(=O)NCCc3ccc(OC)c(OC)c3)CC2)cc1	x	x	2.6	x	-3
COc1ccccc1-c1c(C)nn2c(N3CCC(C)CC3)cc(C)nc12	10%	x	0.8	x	3
COc1ccccc1C1N(c2cc(Cl)ccc2OC)C(=O)C2CCCN21 (configuration not stated)	-1%	-44	1.0	11	-3	Arbovirus anti repeat=3
COc1ccc(Cl)c2sc(N(Cc3cccnc3)C(C)=O)nc12	x	x	0.2	x	5
COc1cc(OC)cc(-c2nc(-c3ccccc3OC)no2)c1	0%	-19	4.2	0	1
COc1ccc(-n2ccnc2SCC(=O)NCc2ccc3c(c2)OCO3)cc1	2%	-3	1.7	-2	-10
COC(=O)c1cc(OC)nc(OC)c1	-5%	x	0.8	x	-5
COc1ccc(S(=O)(=O)Nc2ccccc2)cc1OC	1%	19	x	7	-11
COc1ccc(NS(=O)(=O)c2cn(C)c(=O)n(C)c2=O)c(OC)c1	-8%	x	-0.7	x	-8
COc1ccc(-c2csc(N(Cc3ccccc3)C(=O)COc3ccc(Cl)cc3)n2)cc1	-5%	-7	-1.1	4	13

Assay outcomes from PubChem.
